Yeast UUG start = modulators of start codon recognition fidelity in yeast; activity score, % at 18.7 µM; S. cerevisiae UUG-firefly luciferase reporter, luminescence/redox ratio; 350,000 compounds, 0.13% hits;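 active = replicate mean at a twofold rise or more, about +100% in these data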;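 note: firefly luciferase made from a UUG start codon reports start codon fidelity; reporter light over untreated wells divided by growth signal over untreated wells; some hits fall short of that in this replicate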
CSC inhib = cancer stem cell inhibition; AID 2717; 300,000 compounds, 1.1% hits; inhibition, % at 7.5 µM; cancer stem cell-like cells viability, luminescence;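 active = mean at 75% or more and at least half the replicates too; inconclusive = mean and replicates disagree; tested in HMLE shEcad cells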;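 note: 0% = median of negative and 100% = median of positive control wells; the first replicate is given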
Env fusion inh = blocks HIV Env-driven cell-cell fusion | AID 651610 | inhibition, % at 12.3 µM | HeLa-JRFL Env/CEM21 cell fusion, luciferase | 360,000 compounds, 1.1% hits;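 active = mean replicate inhibition score of at least 50 and every replicate individually at or above 50; inconclusive = only one of the two criteria met; inactive = mean below 50 and not all replicates reaching 50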;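 note: 0% = plate neutral controls and 100% = maraviroc near 300 nM; one replicate is shown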
PABP FP inh = PABP-poly(A) binding inhibition; P11940; PABP-poly(A) RNA binding, fluorescence polarization; inhibition, % at 35 µM; 290,000 compounds, 1% hits;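 active = 50% or more with normal probe brightness, or confirmed in later tests; inconclusive = above 50% with abnormal brightness, or retests that disagree; inactive = below 50% or failed in later tests; about a fifth of its hits are not listed in these tables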;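 note: calls also rest on retests at 20 µM and on dose response follow-up; controls were probe without protein and protein plus probe with vehicle; some compounds called inactive have numbers as strong as hits; many hits fall short of the cut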
Rce1 inh = yeast Ras-converting enzyme inhibition; yeast membranes, quenched prenylated peptide cleavage fluorescence; 290,000 compounds, 0.27% hits; Q03530; calls only;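 active = fall in fluorescence gain of 50% or more versus controls, with final raw signal at or below 3038400; inconclusive = same 50% fall but final raw signal above 3038400; inactive = fall in fluorescence gain under 50%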;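 note: plate controls were neutral control wells for no effect and wells lacking membranes for full effect; tested at 10 µM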
Target sequence (Q03530 whole entry, looked up): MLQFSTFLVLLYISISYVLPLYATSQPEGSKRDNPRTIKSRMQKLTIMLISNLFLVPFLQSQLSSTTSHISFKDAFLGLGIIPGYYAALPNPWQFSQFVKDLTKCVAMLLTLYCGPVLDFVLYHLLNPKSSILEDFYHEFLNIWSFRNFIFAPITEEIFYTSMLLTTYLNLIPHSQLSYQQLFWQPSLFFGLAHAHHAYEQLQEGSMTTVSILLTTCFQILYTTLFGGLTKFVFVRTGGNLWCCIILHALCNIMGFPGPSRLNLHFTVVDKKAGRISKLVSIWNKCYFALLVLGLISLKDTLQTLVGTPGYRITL
MT1-MMP act inh = blocks activation of human MT1-MMP; HT1080 RFP-PRO-GFP cells, GFP/RFP ratio fluorescence, overnight; percent of plate control window, DMSO zero; GFP/RFP ratio change, % at 20 µM; 360,000 compounds, 0.061% hits;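 active = GFP/RFP ratio change of at least 30% with cell ATP level not reduced by more than half and red fluorescence within 50% of control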; note: strong numbers were not always called active
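Assay system – RFP-PRO-GFP reporter HT1080 cells · Compound dosing – single dose of 20 µM compound, 1% DMSO final · Incubation – overnight compound exposure at 37 °C · Measure – GFP/RFP fluorescence ratio · Benchmarks – DMSO wells and RFP-L50D-GFP cells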
eIF4H FP inh = inhibitors of RNA binding by human eIF4H | inhibition, % at 35 µM | 290,000 compounds, 0.94% hits | Q15056 | eIF4H fluorescence polarization binding assay;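 active = 50% or more with normal probe brightness, or confirmed in later tests; inconclusive = above 50% with abnormal brightness, or retests that disagree; inactive = below 50% or failed in later tests; about a fifth of its hits are not listed in these tables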;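 note: calls also rest on retests at 20 µM and on dose response follow-up; 0% = protein and probe with vehicle and 100% = probe without protein; strong numbers were not always called active; many hits fall short of the cut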
eIF4H FP inh retest = further read-out of eIF4H FP inh, marked with its call; inhibition, %; compound at 20 µM; confirmation average;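 mean of two retest wells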
PABP FP inh retest = second read-out of PABP FP inh, no call of its own (marks repeat the call); inhibition, %; compound at 20 µM; confirmation repeats;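 mean of two retest wells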
MT1-MMP act inh RFP = second read-out of MT1-MMP act inh, no call of its own (marks repeat the call); RFP signal change, %; measured here: RFP expression control read;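 0 = vehicle wells; hits needed this value within 50% of zero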
The depositor's hits bear a star; i = inactive; ? = inconclusive; / = not tested or not shown. This is a subset; the hit share may differ from the screen's.

SMILES	Yeast UUG start	CSC inhib	Env fusion inh	PABP FP inh	Rce1 inh	MT1-MMP act inh	MT1-MMP act inh RFP	eIF4H FP inh	others
CCOC(=O)/C(C#N)=C/c1c(N2CCCCCC2)nc2ccccn2c1=O	-13	4	-5	-2	i	-5	-2	-6
COC(=O)c1ccc(-n2nnnc2SCc2nn[nH]n2)cc1	-7	-14	-5	9	i	-2	0	-5
Nc1nc(NCc2ccco2)nc(Nc2cccc(F)c2)c1[N+](=O)[O-]	-3	-4	13	5	i	-2	-2	-6
CCOC(=O)C1(Cc2cccc(OC)c2)CCCN(C(=O)c2cc(CC(C)C)[nH]n2)C1 (centres undefined)	-2	0	3	6	i	-1	1	8
Cn1c(NC(=O)c2ccccc2NC(=O)C(C)(C)C)nc2ccccc21	0	7	29	0	i	2	-4	0
O=P(c1ccccc1)(c1ccccc1)C(O)c1ccccn1 (centres undefined)	-6	-11	6	5	i	-1	0	2
O=C(Nc1ccc(N2CCN(C(=O)c3ccco3)CC2)cc1)c1ccc([N+](=O)[O-])cc1Cl	-3	6	54	3	i	-5	-16	-4
CC(=O)Nc1ccc(NC(=O)CN(c2ccc(C34CC5CC(CC(C5)C3)C4)cc2)S(C)(=O)=O)cc1	5	10	93*	0	i	12	1	9
COc1cccc(CNC(=O)C2CCCN(S(=O)(=O)c3ccc4c(c3)C(C)(C)C(=O)N4C)C2)c1 (centres undefined)	-10	-9	15	-4	i	-1	-3	-4
O=C(CNC(=O)c1ccccc1)N=Nc1c(O)[nH]c2ccc(Br)cc12	-11	/	-6	2	i	0	3	-2
CCN(CC)C(=O)c1nc[nH]c1C(=O)O[C@@H](C)c1ccccc1	-8	-5	6	/	/	1	3	/
CCOc1ccc(C(=O)Nc2ccc(NC(=O)c3ccco3)c(Cl)c2)cc1Br	3	6	/	-7	i	0	0	-13
CCN(Cc1nc(-c2ccc(OC)cc2)no1)C(=O)c1ccoc1C	8	-5	-2	1	i	1	-2	-10
COc1ccc(CCNC(=O)C2CCN(C(=O)c3ccc(C(C)(C)C)cc3)CC2)cc1	4	3	4	0	i	8	-6	-6
Cc1ccc(S(=O)(=O)N(CC(=O)O)Cc2ccccc2F)cc1	-8	3	-51	10	i	-6	-5	-2
COc1ccc(Cc2nnc(NC(=O)C3CCCO3)s2)cc1 (centres undefined)	-17	-6	-36	4	i	-1	-1	7
COc1ccc(CN(C)CC(=O)Nc2c(C)cccc2C)c(OC)c1	/	12	-73	32	i	1	4	-2
O=C(Cn1[nH]c(=O)c2ccccc2c1=O)OCC(=O)c1ccc(F)c(F)c1	-11	-15	/	/	/	-1	0	/
Cc1cccc(OCC(O)Cn2c(=N)n(CCN3CCOCC3)c3ccccc32)c1 (centres undefined)	0	-6	3	-12	i	1	3	4
O=C(COC(=O)c1n[nH]c2ccccc12)NCCc1ccc(Cl)cc1	-7	3	/	/	/	-4	0	/
Cc1ccc2nc(-c3ccc(NC(=O)CCS(=O)(=O)c4ccccc4)cc3)sc2c1	/	6	-153	?	i	0	-6	-9
CCOC(=O)c1[nH]c(C)c(C(=O)N2CCOCC2)c1C	8	/	-8	-11	i	-3	2	-9
O=C1CC2(CCN(C(=O)c3ccc([N+](=O)[O-])cc3)CC2)Oc2ccccc21	7	5	0	/	i	3	-7	/
c1ccc(COC2CCCN(Cc3nc(Cc4ccccc4)no3)C2)cc1 (centres undefined)	/	4	9	0	i	2	6	1

The closing 3 entries of the part before are carried over, then new ones follow:
SMILES	Yeast UUG start	CSC inhib	Env fusion inh	PABP FP inh	Rce1 inh	MT1-MMP act inh	MT1-MMP act inh RFP	eIF4H FP inh	others
CCOC(=O)c1[nH]c(C)c(C(=O)N2CCOCC2)c1C	8	/	-8	-11	i	-3	2	-9
O=C1CC2(CCN(C(=O)c3ccc([N+](=O)[O-])cc3)CC2)Oc2ccccc21	7	5	0	/	i	3	-7	/
c1ccc(COC2CCCN(Cc3nc(Cc4ccccc4)no3)C2)cc1 (centres undefined)	/	4	9	0	i	2	6	1
CCOc1ccccc1NC(=O)C1(S(=O)(=O)c2ccc(Cl)cc2)CC1	-8	/	19	15	i	1	-4	-3
COC(=O)c1cc(C(=O)c2cc(Br)ccc2O)coc1=N	/	11	-112	12	i	-3	0	-6
COc1cc(CNC2CCCCCCC2)cc(Cl)c1OCC(N)=O	-12	14	4	11	i	1	-1	6
O=C(Nc1ccnn1C1CCN(Cc2cccc(OCCO)c2)CC1)C1CCCC1	2	-6	-5	4	i	-1	3	3
COc1ccc(N2CCN(C(=O)c3cccc(S(=O)(=O)N4CCc5ccccc54)c3)CC2)cc1	-13	-6	-10	/	/	-6	-12	/
CCCCCC(=O)N=Nc1c(O)[nH]c2ccc([N+](=O)[O-])cc12	/	8	-2	12	i	6	2	-1
Cc1c(C(=O)N2CCCCC2)c(S(=O)(=O)N2CCc3ccccc32)c(C)n1C	-37	-7	3	-5	i	-3	3	-6
CC1(C)Cc2c(sc3nc4n(c(=N)c23)CCC4)CO1	8	-4	-14	10	i	-5	2	7
Cc1ccc(C=O)c([B-](F)(F)F)c1	4	/	13	/	/	0	7	/
CCNc1ccc(N=Nc2c(C)n(C)n(-c3ccccc3)c2=O)cc1	/	4	20	12	i	8	6	-5
O=C(CSc1nnc(NC(=O)c2ccccc2Cl)s1)NC1CC1	-22	-6	-9	9	i	0	-1	-23
COC(=O)/C(=C(/F)SCC(C)=O)C(F)(F)F	/	-10	/	23	i	/	/	7

Continued, overlapping the part above by 4 compounds.
SMILES	Yeast UUG start	CSC inhib	Env fusion inh	PABP FP inh	Rce1 inh	MT1-MMP act inh	MT1-MMP act inh RFP	eIF4H FP inh	others
Cc1ccc(C=O)c([B-](F)(F)F)c1	4	/	13	/	/	0	7	/
CCNc1ccc(N=Nc2c(C)n(C)n(-c3ccccc3)c2=O)cc1	/	4	20	12	i	8	6	-5
O=C(CSc1nnc(NC(=O)c2ccccc2Cl)s1)NC1CC1	-22	-6	-9	9	i	0	-1	-23
COC(=O)/C(=C(/F)SCC(C)=O)C(F)(F)F	/	-10	/	23	i	/	/	7
O=C(Nc1nc2ccccc2s1)C1CCN(S(=O)(=O)c2cc([N+](=O)[O-])ccc2Cl)CC1	-10	?	-6	26	i	1	-30	42
COc1ccc(CNC(=O)C2CCN(S(=O)(=O)c3ccc4c(c3)NC(=O)CO4)CC2)cc1	-13	10	11	4	i	2	1	-10
COc1ccccc1CCC(=O)NNC(=O)c1ccccc1	0	-7	4	-8	i	0	2	0
CSc1ncc(CN2CCCCC2C(=O)Nc2ccc(Oc3ccccc3)nc2)cn1 (centres undefined)	1	16	-6	3	i	-3	-5	-3
COc1ccc(-c2ccc(C#N)c(SCC(=O)Nc3sc4c(c3C#N)CCC4)n2)cc1	-10	23	/	33	i	-84	1	39
CC(C)(C)NC(NC(=O)Cc1ccccc1)C(Cl)(Cl)Cl (centres undefined)	1	-4	24	-2	i	1	-4	2
O=C(NCCNS(=O)(=O)c1ccc(C(F)(F)F)cc1)N1CCOCC1	/	-7	6	-2	i	0	7	-7
CC(=O)Nc1ccc(N(C(=O)c2ccco2)C(C(=O)NC2CCCC2)c2ccc(N3CCOCC3)cc2)cc1 (centres undefined)	/	-5	-1	-3	i	3	1	1
COc1ccc(C(=O)NCC2CCCN2S(=O)(=O)c2cccs2)cc1OC (centres undefined)	-31	-16	-11	/	i	-1	1	/
O=C(NC(=S)Nc1ccccc1N1CCCCC1)c1ccco1	-9	41	3	32	i	-1	1	2
Cc1ccc2cc(CN(CCCO)S(=O)(=O)c3cccc4nsnc34)c(=O)[nH]c2c1C	-18	5	3	3	i	0	0	-2
Cc1cc(NC(=O)/C=C/C(=O)N(c2ccccc2C)C(C(=O)NC2CCCC2)c2ccc(F)cc2)no1 (centres undefined)	/	5	/	-1	i	-13	-17	-6

Looked up by structure from the entries so far (four):
SMILES	Yeast UUG start	CSC inhib	Env fusion inh	PABP FP inh	Rce1 inh	MT1-MMP act inh	MT1-MMP act inh RFP	eIF4H FP inh	others
Cc1ccc2cc(CN(CCCO)S(=O)(=O)c3cccc4nsnc34)c(=O)[nH]c2c1C	-18	5	3	3	i	0	0	-2
CC(C)(C)NC(NC(=O)Cc1ccccc1)C(Cl)(Cl)Cl (centres undefined)	1	-4	24	-2	i	1	-4	2
CSc1ncc(CN2CCCCC2C(=O)Nc2ccc(Oc3ccccc3)nc2)cn1 (centres undefined)	1	16	-6	3	i	-3	-5	-3
COc1ccc(-c2ccc(C#N)c(SCC(=O)Nc3sc4c(c3C#N)CCC4)n2)cc1	-10	23	/	33	i	-84	1	39

The list continues:
SMILES	Yeast UUG start	CSC inhib	Env fusion inh	PABP FP inh	Rce1 inh	MT1-MMP act inh	MT1-MMP act inh RFP	eIF4H FP inh	others
CCOc1cc(NC(=O)C2CCCCC2)c(OCC)cc1NC(=O)c1ccco1	-11	-9	-17	-2	i	4	-3	4
Cc1ccc(CSc2ccc(-c3ccco3)nn2)cc1	-21	20	/	-68	i	1	-4	66	eIF4H FP inh retest=15;PABP FP inh retest=38
Cc1ccc(/C(=N\O)c2oc3c(C)c4oc(=O)cc(C)c4cc3c2C)cc1	-4	105*	-155	-1	i	-14	-22	3
O=C(Cn1c(-c2cscn2)nc2ccccc21)Nc1ccc(Cl)cc1	-31	-14	/	0	i	0	-4	4
Clc1cccc(CNc2ccn3nc(-c4ccc(OCCN5CCOCC5)cc4)cc3n2)c1	1	/	14	/	/	3	-6	/
Nn1c(SCC(=O)Nc2cc(C(F)(F)F)ccc2Cl)nncc1=O	-11	-10	/	4	i	-2	1	2
C=CCN(C(=O)c1csnn1)C(C(=O)NC(C)(C)C)c1ccncc1 (centres undefined)	0	6	-6	1	i	-2	-2	10
CCOCc1cnc(C)nc1NCC(=O)c1c(C)[nH]c2cc(C)ccc12	-8	4	/	2	i	-12	-3	7
COCCOC(=O)C1=C(C)NC(SCC(=O)NC(C)(C)C)=C(C#N)C1c1ccco1 (centres undefined)	0	/	3	3	i	3	0	-1
O=C(CN(CCc1ccccc1)C(=O)Cn1nnc(-c2cccs2)n1)NCc1ccco1	-11	-4	-12	5	i	-7	-3	-1
O=C(Nc1ccc(Cl)cc1)Nc1ccc2c(c1)OCO2	2	10	-84	-7	i	2	2	-9
CCC1SC2=NC(C)=C(C(=O)OCCOC)C(/C=C/c3ccccc3OC)N2C1=O (centres undefined)	-13	4	5	-1	i	-17	-9	-6
Cc1ccc(-n2ncc3c(=O)n(CC(=O)N4CCCc5ccccc54)cnc32)cc1C	/	/	/	9	i	6	-8	-8
COc1ccc(OC)c(C2N(c3ccc(Cl)cc3)C(=O)C3CCCN32)c1 (centres undefined)	8	-7	-23	2	i	-3	2	-8
O=C(Nc1ccc2nc3n(c(=O)c2c1)CCCC3)c1ccc(Cl)nc1	-12	-6	5	/	i	-3	1	/
CCN(c1ccc(OC)cc1)S(=O)(=O)c1ccc(-c2cc(C)no2)s1	-12	-19	18	5	i	0	-7	-6
CCOC(=O)C1C(c2cccs2)NC(=O)N(C)C1(O)C(F)(F)F (centres undefined)	-10	-3	14	-5	i	3	5	1
CCC1CN(S(=O)(=O)c2ccc3c(c2)NC(=O)CC(=O)N3)c2cc(Cl)ccc2O1 (centres undefined)	10	6	10	1	i	-8	-2	-22

Compound activity (PubChem)
